RanGTP-Imp inh = disruptors of Ran-importin-beta complex formation – biochemical, FRET, CFP-Ran, YFP-importin-beta, homogeneous, primary screen; cell-free CFP-Ran/YFP-importin-beta FRET ratio; inhibition, % (concentration not given with the values); hit rate 1.1% among 300,000; AID 2216;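 active = most replicates above 15%; inconclusive = exactly half above 15%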;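 note: 0% = DMSO wells and 100% = Ran loaded with GDP instead of GTP; wells of about 40 µL received 100 nL stock; the first replicate is given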
rRNA inh HTS = inhibitors of bacterial rRNA selective over humanized ribosomes; E. coli WT GFP vs humanized-ribosome RFP mutants, fluorescence, 24 h; stronger effect = lower value; DMSO median 0, no signal -100; GFP signal change (wild-type ribosome), % (test concentration not listed); hit rate 1.6% among 350,000;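 active = significant combined selectivity score with lowered wild-type GFP, culture density cut under 30%, mutant RFP and density less affected; inactive = any of these conditions unmet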; note: one replicate is shown; some compounds called inactive have numbers as strong as hits
MLL AF4-AF9 inh = blocks AF4 peptide binding to human AF9; P42568; AlphaScreen, biotin-AF4 peptide binding to FLAG-AF9; inhibition, % at 10 µM; hit rate 0.47% among 350,000; AID 651704;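 active = every replicate reaching a set inhibition limit, whatever the replicate mean, cut at about 25% in these data; inconclusive = mean inhibition reaches that limit but some replicates miss it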;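 note: 0% = plate neutral control median and 100% = total signal loss; the record names both 10 and 1 µM as test concentration; the first replicate is given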
Target sequence (P42568 whole entry, looked up): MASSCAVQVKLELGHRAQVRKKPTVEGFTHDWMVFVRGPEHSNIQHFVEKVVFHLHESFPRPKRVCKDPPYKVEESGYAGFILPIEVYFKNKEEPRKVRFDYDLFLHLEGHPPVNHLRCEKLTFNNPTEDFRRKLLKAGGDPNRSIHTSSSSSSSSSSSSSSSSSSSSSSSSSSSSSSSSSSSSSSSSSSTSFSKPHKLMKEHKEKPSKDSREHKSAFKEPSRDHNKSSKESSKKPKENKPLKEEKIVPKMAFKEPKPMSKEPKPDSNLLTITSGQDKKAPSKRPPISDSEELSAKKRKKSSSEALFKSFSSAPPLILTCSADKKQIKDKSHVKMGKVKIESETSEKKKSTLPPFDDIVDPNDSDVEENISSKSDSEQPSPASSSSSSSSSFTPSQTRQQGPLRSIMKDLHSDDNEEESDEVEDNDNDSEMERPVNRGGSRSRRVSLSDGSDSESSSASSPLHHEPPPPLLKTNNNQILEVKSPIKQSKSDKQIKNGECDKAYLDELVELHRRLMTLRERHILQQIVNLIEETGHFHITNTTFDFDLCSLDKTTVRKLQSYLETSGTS
Vif TR-FRET = HIV-1 Vif–A3G interaction blockers – biochemical, TR-FRET, GST-Vif 1-94, biotin-A3G peptide, dose response retest, primary screen (AID 1117319); TR-FRET GST-Vif / biotin-A3G peptide binding; higher % means a stronger effect; test concentration not given here; strong numbers were not always called active; inhibition, %; hits with a dose series show IC50 in µM; hit rate 0.57% among 260,000;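 active = above the screen mean plus three standard deviations and confirmed in dose response; inconclusive = results disagree or hit not tested in dose response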;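 note: Vif residues 1-94 fused to GST binding biotinylated APOBEC3G peptide 110-148; 0% = full assay without inhibitor and 100% = GST in place of GST-Vif; retest series ran down from 100 µM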
Beta cell apopt = blocks beta cell apoptosis; INS-1E cytokine-induced death, ATP luminescence, 48 h; percent of positive-control rescue, neutral wells zero; hit rate 0.8% among 300,000; protection from apoptosis, % (test concentration not listed);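 active = all replicates at 75% or more, or half of them and the mean; inconclusive = half reach 75% but not the mean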;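 note: 0% = cytokine-treated negative control wells and 100% = positive control rescue; higher means more ATP so stronger rescue from cytokine killing; wells of about 40 µL received 100 nL stock; the first replicate is given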
Calb FLC = C. albicans growth modulation with fluconazole; C. albicans CaCi-2 (fluconazole-resistant clinical isolate) + fluconazole, Alamar Blue growth, 48 h; growth inhibition, % (concentration not given with the values); hit rate 0.57% among 300,000; AID 1979;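 active = most replicates above 75%; inconclusive = exactly half above 75%; inactive = most below 75%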;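 note: all wells also contain fluconazole at 8 µg/ml as a sub-toxic cotreatment; 0% = median of DMSO wells and 100% = median of geldanamycin control wells; wells of about 8 µL received 7.5 nL stock; the first replicate is given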
T cruzi repl = T. cruzi replication inhibition | T. cruzi beta-gal in NIH3T3, luminescence, 90 h | inhibition, % (test concentration not listed) | hit rate 1.4% among 300,000;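 active = mean inhibition across valid replicates above about 55%, limit read from the data; inconclusive = mean below that limit but half or more replicates reach it; inactive = mean below it, under half of replicates reach it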;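 note: signal also drops with host cell toxicity which is not excluded here; 0% = plate median of DMSO wells and 100% = zero luminescence signal; higher percent means less beta-gal luminescence so fewer parasites; stock transfer was 50 nL into about 50 µL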
A1 inh = inhibitors of the anti-apoptotic protein A1, read as caspase activation | MEF A1-2A-BIM cells, Caspase-Glo 3/7 luminescence, 3 h; percent of clofoctol response, vehicle zero | caspase activation, % (no concentration beside the values) | hit rate 0.066% among 330,000 | AID 2462;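 active = over half of replicate activation scores above 10%, or exactly half above 10 with the replicate mean above 10; inconclusive = replicate mean below 10 yet half the replicates above 10; inactive = over half of replicates below 10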;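 note: wells of about 30 µL received 50 nL stock; many hits fall short of the cut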
rRNA inh HTS OD600 = also measured in rRNA inh HTS; calls as there; OD600 change, %; measured here: OD600 growth;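 optical density of the mix in the first replicate; 0 = DMSO median and -100 = no signal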
rRNA inh HTS RFP = recorded beside rRNA inh HTS, whose call it bears; RFP signal change, %; measured here: RFP humanized mutant strains;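 first replicate; 0 = DMSO median and -100 = no signal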
* marks the source's active call; other numbers are inactive results. Only part of the results is shown (hit frequency here may not be typical).

How did COc1ccc2[nH]c(=O)c(CN(CCc3cccc(C)c3)C(C)=O)cc2c1 do in these assays?
RanGTP-Imp inh: 0.3; Vif TR-FRET: -1.1%; Beta cell apopt: -2.6; Calb FLC: 16.5; T cruzi repl: 12.5; A1 inh: -1.3

What do the screens show for `Cc1ccc(N2CC(C(=O)N3CCC(c4nc5ccccc5[nH]4)CC3)CC2=O)cc1C` (stereo unspecified)?
RanGTP-Imp inh: 6.8; rRNA inh HTS: -2.9; MLL AF4-AF9 inh: 0.2; Vif TR-FRET: -1.5%; Calb FLC: 3.7; T cruzi repl: 0.4; A1 inh: 0.8; rRNA inh HTS OD600: -1.8; rRNA inh HTS RFP: 0.9

How did Nc1c(C(=O)O)cnc2c(-c3ccc(Cl)cc3)cnn12 do in these assays?
RanGTP-Imp inh: -3.6; rRNA inh HTS: -33.0; MLL AF4-AF9 inh: -0.6; Vif TR-FRET: -4.5%; Beta cell apopt: -1.3; Calb FLC: 4.0; T cruzi repl: -8.0; A1 inh: -0.4; rRNA inh HTS OD600: -40.3; rRNA inh HTS RFP: -9.4

Results for C=CCn1c(=O)c2ccc(C(=O)NCc3ccccc3)cc2n(Cc2ccc(C)cc2)c1=O ?
RanGTP-Imp inh: inconclusive; rRNA inh HTS: 3.9; MLL AF4-AF9 inh: 0.2; Vif TR-FRET: 1.9%; Beta cell apopt: 10.9; Calb FLC: -2.9; T cruzi repl: -13.2; A1 inh: -0.1; rRNA inh HTS OD600: 4.6; rRNA inh HTS RFP: 1.6

Results for CC(=O)N(/N=C1/C(=O)Nc2ccccc21)c1ccccc1 ?
RanGTP-Imp inh: -1.1; rRNA inh HTS: 16.1; MLL AF4-AF9 inh: 2.2; Beta cell apopt: 3.9; Calb FLC: 6.5; T cruzi repl: 3.6; A1 inh: -0.4; rRNA inh HTS OD600: 8.2; rRNA inh HTS RFP: 13.1

What do the screens show for `COC(=O)N/N=C/c1ccccc1OCCOc1ccc(OC)cc1`?
RanGTP-Imp inh: 5.0; rRNA inh HTS: 10.7; MLL AF4-AF9 inh: -2.9; Vif TR-FRET: 3.9%; Beta cell apopt: 1.0; Calb FLC: -4.3; T cruzi repl: -4.7; A1 inh: 0.4; rRNA inh HTS OD600: 8.8; rRNA inh HTS RFP: 2.0

How did CCn1c(N2CCN(CC(=O)c3c(C)n(C)c4ccc(OC)cc34)CC2)nc2c1c(=O)[nH]c(=O)n2C do in these assays?
RanGTP-Imp inh: 1.6; rRNA inh HTS: -2.6; MLL AF4-AF9 inh: 2.4; Vif TR-FRET: -7.2%; Beta cell apopt: 5.3; Calb FLC: 4.4; T cruzi repl: 5.7; A1 inh: 0.3; rRNA inh HTS OD600: -2.5; rRNA inh HTS RFP: -0.9

What do the screens show for `Cc1ccc(NC(=O)c2ccc(S(=O)(=O)NCC3CCCO3)cc2)cc1C` (stereo unspecified)?
RanGTP-Imp inh: 0.7; rRNA inh HTS: -6.6; MLL AF4-AF9 inh: -13.1; Beta cell apopt: 1.4; Calb FLC: -9.7; T cruzi repl: -14.4; A1 inh: 1.0; rRNA inh HTS OD600: 0.8; rRNA inh HTS RFP: 1.6

How did O=C(NCc1ccco1)C1CCN(S(=O)(=O)c2cccc3cccnc23)CC1 do in these assays?
RanGTP-Imp inh: -2.2; rRNA inh HTS: 9.9; MLL AF4-AF9 inh: -0.6; Vif TR-FRET: 11.1%; Beta cell apopt: -4.3; Calb FLC: -3.5; T cruzi repl: -25.1; A1 inh: 0.3; rRNA inh HTS OD600: 7.7; rRNA inh HTS RFP: 1.0

Results for O=C(CN(C(=O)CNC(=O)c1ccco1)c1ccccc1F)NC1CCCCC1 ?
RanGTP-Imp inh: 4.7; rRNA inh HTS: 1.6; MLL AF4-AF9 inh: 0.7; Vif TR-FRET: 6.0%; Beta cell apopt: -2.4; Calb FLC: 2.2; T cruzi repl: -1.5; A1 inh: 0.4; rRNA inh HTS OD600: -1.5; rRNA inh HTS RFP: -2.5

What do the screens show for `Cn1cc(/C=C/C(=O)N2CCCC(C(=O)c3cccc(C(F)(F)F)c3)C2)cn1` (stereo unspecified)?
RanGTP-Imp inh: 3.2; rRNA inh HTS: -29.1*; MLL AF4-AF9 inh: -1.6; Vif TR-FRET: 68.3%; Beta cell apopt: 0.5; Calb FLC: inconclusive; T cruzi repl: 4.0; A1 inh: 0.1; rRNA inh HTS OD600: -18.8*; rRNA inh HTS RFP: -2.6*

How did CCNS(=O)(=O)c1cc(OC)c(Cl)cc1OC do in these assays?
RanGTP-Imp inh: 1.7; Vif TR-FRET: 6.8%; Beta cell apopt: 0.2; Calb FLC: 6.2; T cruzi repl: 18.7; A1 inh: 0.5

Results for O=C(Nc1ccc2c(c1)OCO2)C1CCCN1C(=O)OCc1ccccc1 (stereo unspecified) ?
RanGTP-Imp inh: -1.7; Vif TR-FRET: 4.4%; Beta cell apopt: -3.4; Calb FLC: -16.9; T cruzi repl: 1.7; A1 inh: -0.3

What do the screens show for `CN(Cc1cccs1)C(=O)CSc1nc2ccccc2[nH]1`?
RanGTP-Imp inh: -1.2; rRNA inh HTS: 6.1; MLL AF4-AF9 inh: 0.3; Vif TR-FRET: 3.7%; Beta cell apopt: 3.6; Calb FLC: 11.3; T cruzi repl: 5.0; A1 inh: -1.3; rRNA inh HTS OD600: 1.1; rRNA inh HTS RFP: 6.3

Results for Cc1nn(C)c(Cl)c1CN1CCC(n2nccc2NC(=O)C2CCCC2)CC1 ?
RanGTP-Imp inh: -5.2; rRNA inh HTS: 15.9; MLL AF4-AF9 inh: 3.1; Vif TR-FRET: 0.5%; Beta cell apopt: -15.3; Calb FLC: -13.5; T cruzi repl: 26.7; A1 inh: 0.7; rRNA inh HTS OD600: 7.0; rRNA inh HTS RFP: 2.6

How did CCCCn1nc(NC(=O)c2cccs2)c2cc3ccccc3nc21 do in these assays?
RanGTP-Imp inh: 73.5*; Vif TR-FRET: 3.5%; Beta cell apopt: -2.4; Calb FLC: 10.4; T cruzi repl: 35.0; A1 inh: -0.2

What do the screens show for `Cn1nc(C(=O)NC2CCCCC2)c2c1-c1ccccc1S(=O)(=O)C2`?
RanGTP-Imp inh: 0.9; rRNA inh HTS: 2.2; MLL AF4-AF9 inh: -1.2; Vif TR-FRET: -0.7%; Beta cell apopt: -0.4; Calb FLC: -6.9; T cruzi repl: 8.6; A1 inh: 0.0; rRNA inh HTS OD600: 8.2; rRNA inh HTS RFP: -1.3

How did CCCn1c(=S)[nH]c2cc(C(=O)N3CCCC(C(=O)OCC)C3)ccc2c1=O (stereo unspecified) do in these assays?
RanGTP-Imp inh: 0.4; Vif TR-FRET: 10.4%; Beta cell apopt: -2.9; Calb FLC: 7.8; T cruzi repl: -2.2; A1 inh: -0.3

What do the screens show for `COc1ccc(NC(=O)CSCc2ccc(C#N)cc2)c(OC)c1`?
RanGTP-Imp inh: 2.3; rRNA inh HTS: -3.4; MLL AF4-AF9 inh: 4.3; Vif TR-FRET: inconclusive; Calb FLC: 5.5; T cruzi repl: 6.3; A1 inh: -0.7; rRNA inh HTS OD600: -4.7; rRNA inh HTS RFP: -0.3

Results for CCOC(=O)C(CC(=O)O)NCc1ccco1 (stereo unspecified) ?
RanGTP-Imp inh: 0.3; rRNA inh HTS: 7.4; MLL AF4-AF9 inh: -9.8; Vif TR-FRET: -4.6%; Beta cell apopt: -5.6; Calb FLC: -6.4; T cruzi repl: -6.1; A1 inh: -0.1; rRNA inh HTS OD600: 12.1; rRNA inh HTS RFP: 1.6

What do the screens show for `Cc1cc(C2=NNC(=Nc3ccccc3)SC2)c(C)n1C`?
RanGTP-Imp inh: 5.2; rRNA inh HTS: 5.7; MLL AF4-AF9 inh: 0.9; Vif TR-FRET: 14.8%; Beta cell apopt: -12.7; Calb FLC: -41.8; T cruzi repl: -11.4; A1 inh: 0.3; rRNA inh HTS OD600: 9.0; rRNA inh HTS RFP: -2.2

How did CC(=O)N(c1ccc(Cl)cc1)c1cn(C(C)=O)c2ccccc12 do in these assays?
RanGTP-Imp inh: inconclusive; rRNA inh HTS: -17.2; MLL AF4-AF9 inh: -0.2; Vif TR-FRET: -3.7%; Beta cell apopt: -12.4; Calb FLC: 5.8; T cruzi repl: 3.9; A1 inh: 0.9; rRNA inh HTS OD600: -26.5; rRNA inh HTS RFP: -12.1

Results for Cc1cc2c(cc1C)N(C(=O)CSC1=NCCS1)C(C)(C)c1ssc(=S)c1-2 ?
RanGTP-Imp inh: -1.8; Vif TR-FRET: 6.1%; Beta cell apopt: -3.9; Calb FLC: 5.3; T cruzi repl: inconclusive; A1 inh: -0.1

How did COc1cccc2cc(C(=O)N3C(C)CCCC3C)c(=O)oc12 (stereo unspecified) do in these assays?
RanGTP-Imp inh: 0.8; rRNA inh HTS: 4.6; Vif TR-FRET: 4.1%; Beta cell apopt: -14.1; Calb FLC: -1.7; T cruzi repl: 2.7; A1 inh: 1.7; rRNA inh HTS OD600: 7.3; rRNA inh HTS RFP: -4.3

What do the screens show for `CCn1ncc(Br)c1C(=O)Nc1ccc(C(C)C)cc1`?
RanGTP-Imp inh: 0.9; rRNA inh HTS: -29.2; MLL AF4-AF9 inh: -13.4; Vif TR-FRET: 7.5%; Calb FLC: 19.2; T cruzi repl: 2.7; A1 inh: -0.6; rRNA inh HTS OD600: -37.8; rRNA inh HTS RFP: -8.0

Results for Cc1ccccc1-n1cnc2c(sc3nc(N4CCOCC4)c4c(c32)CCCC4)c1=O ?
RanGTP-Imp inh: 0.3; rRNA inh HTS: -13.1; MLL AF4-AF9 inh: 2.1; Beta cell apopt: 4.4; Calb FLC: 27.5; T cruzi repl: 71.3*; A1 inh: 0.1; rRNA inh HTS OD600: -19.0; rRNA inh HTS RFP: -1.8

How did Cn1c(=O)n(C)c2cc(S(=O)(=O)NCCO)ccc21 do in these assays?
RanGTP-Imp inh: 0.5; rRNA inh HTS: -0.4; MLL AF4-AF9 inh: -2.1; Vif TR-FRET: 6.4%; Beta cell apopt: -9.5; Calb FLC: -2.3; T cruzi repl: 6.6; A1 inh: 0.1; rRNA inh HTS OD600: -0.3; rRNA inh HTS RFP: -8.1

How did Cc1c(C(=O)NNS(=O)(=O)c2ccccc2Cl)sc(=S)n1C do in these assays?
RanGTP-Imp inh: -5.5; rRNA inh HTS: -3.4; MLL AF4-AF9 inh: -1.7; Vif TR-FRET: 3.3%; Beta cell apopt: 0.1; Calb FLC: 5.9; T cruzi repl: -18.8; A1 inh: 0.5; rRNA inh HTS OD600: 5.2; rRNA inh HTS RFP: -4.5

Results for Cc1cc2c(Nc3ccccc3)ncnc2s1 ?
RanGTP-Imp inh: 3.8; rRNA inh HTS: 4.3; MLL AF4-AF9 inh: -2.2; Beta cell apopt: 1.5; Calb FLC: 9.1; T cruzi repl: -12.9; A1 inh: 0.4; rRNA inh HTS OD600: 5.4; rRNA inh HTS RFP: 1.9

How did CCC1CCCCN1c1nc(-c2ccncc2)nc2ccccc12 (stereo unspecified) do in these assays?
RanGTP-Imp inh: -1.1; Vif TR-FRET: inconclusive; Beta cell apopt: 0.0; Calb FLC: 19.8; T cruzi repl: 63.2*; A1 inh: -1.0

Bioassay records (PubChem)
